VCAM-1 up = enhancers of VCAM-1 display on endothelial cells, cell-based, plate reader, pooled HUVEC, TNFa stimulus (AID 455). HUVEC TNFa-induced VCAM-1 immunofluorescence, plate reader; numbers were filed only for top-ranked candidate wells. augmentation, % at 5 µM. actives 0.2% (n = 10,000);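 active means a compound raising TNF-alpha-driven VCAM-1 surface staining, with its hit status upheld on visual or statistical review; inactive means the rest, including hits rejected on review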;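 further: 0% = TNFa with vehicle and 100% = strongest image-checked hit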
Proteasome disasm = blocks ATP-dependent breakdown of the yeast 26S proteasome. anti-FLAG beads, GFP-proteasome disassembly, flow cytometry. actives 0.2% (n = 24,000). inhibition of disassembly, % (concentration not given with the values);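 active means above 40%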;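 further: plate controls were ATP control with full disassembly for no effect and ATP-gamma-S intact proteasomes for full effect; higher percent means more bead fluorescence retained so stronger block of disassembly; stock transfer was 100 nL into about 10 µL; wells with too few beads may also be inconclusive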
* = called active by the depositor; i = inactive; x = no result given.

Sequence of screens: VCAM-1 up	Proteasome disasm
> O=C(C1CCN(S(=O)(=O)c2cccc3cccnc23)CC1)N1CCc2ccccc21
→ x	-1.5
> Cc1nn(C)c(C)c1S(=O)(=O)N(CC(=O)Nc1nccs1)c1ccc(C(C)C)cc1
→ x	-1.4
> Cc1ccc(C2=CC(c3ccc(N(C)C)cc3)n3nnnc3N2)cc1 (stereo unspecified)
→ x	1.1
> CCOc1cc2[nH]c(=O)n(CC3CCC(C(=O)NCCCOC)CC3)c(=O)c2cc1OCC (stereo unspecified)
→ x	-0.9
> O=C(c1cnccn1)N(c1ccccc1)C1(C(=O)NC2CCCC2)CCCCC1
→ i	0.3
> Cc1cccc(Cn2c(=O)c3c(nc4n3CCN4Cc3ccco3)n(C)c2=O)c1
→ x	0.2
> O=C(CN1CCN(c2ccc(F)cc2)CC1)Nc1cccc(C(F)(F)F)c1
→ x	1.3
> COC(=O)N1CC(c2ccccc2)CC1=O (stereo unspecified)
→ i	-1.0
> Cc1cc(OCC(=O)NCCO)cc(C)c1Cl
→ i	2.6
> Cc1c(C(=O)N2CCN(c3ccc(F)cc3)CC2)sc2nc(-c3ccccc3)cn12
→ x	0.7
> COCCn1c(SCC(=O)Nc2cccc(OC)c2)nnc1-c1ccc(Cl)cc1
→ i	0.1
> CCOc1cc2[nH]c(=O)n(CCC(=O)NCCc3ccc(OC)c(OC)c3)c(=O)c2cc1OCC
→ i	0.8
> Oc1ccccc1-c1nnc(-c2ccc(C(F)(F)F)cc2)o1
→ x	2.4
> COc1cccc(C2C3=C(CCCC3=O)Nc3nc(-c4cc(OC)c(OC)c(OC)c4)nn32)c1 (stereo unspecified)
→ x	1.4
> Nc1c(S(=O)(=O)c2ccccc2)nnn1-c1ccccc1
→ x	-0.1
> COC(=O)c1cn(C)c2ccc(S(=O)(=O)N3CCCC3)cc2c1=O
→ x	-6.5
> COc1ccc(C(=O)Nc2cc3c(cc2C#N)OCO3)cc1S(=O)(=O)N1CCN(C)CC1
→ x	2.4
> Cc1cc(=O)n2nc(N3CCCC(C(=O)N4CCN(C)CC4)C3)sc2n1 (stereo unspecified)
→ i	11
> O=C(CSc1nnc(Cn2c(=O)sc3ccccc32)n1-c1ccccc1)N1CCCCCC1
→ x	8.1
> CC1(C)CC(=O)C2=C(C1)NC(=O)CC2c1cccc(F)c1 (stereo unspecified)
→ x	-1.2
> C=CCc1ccccc1OCC(O)CN1CCN(c2ccccc2F)CC1 (stereo unspecified)
→ x	-1.1
> Cn1c(=O)c2cc(S(=O)(=O)NCCC(=O)N3CC=C(c4ccccc4)CC3)ccc2n(C)c1=O
→ x	0.0
> O=C1CCc2cc(S(=O)(=O)NCCC(=O)NC3CCN(Cc4ccccc4)CC3)ccc2N1
→ x	0.1
> CCCCCn1c(N2CCN(Cc3ccccc3)CC2)nc2c1c(=O)[nH]c(=O)n2C
→ i	-0.2
> CCn1c(=O)cc(SCC(=O)NCC2CCCO2)c2ccccc21 (stereo unspecified)
→ i	-0.4
> CCOC(=O)c1nnn(-c2nonc2-n2cccc2)c1CN1CCCCC1
→ x	-1.2
> O=C(O)CCC(=O)N1CCOc2ccc(Cl)cc21
→ x	-1.1
> Cc1ccc(NC(=O)c2cc(-c3ccc(C)o3)nc3ccccc23)nc1
→ i	5.6
> CCCc1nnc2n1N=C(c1ccc(OC)c(OC)c1)CS2
→ i	0.3
> COc1cc(OC)cc(OCC(O)Cn2cnc(-c3ccccc3)c2)c1 (stereo unspecified)
→ i	1.2
> O=C(COC(=O)c1cnccn1)Nc1ccc2c(c1)OCO2
→ i	6.3
> COc1ccc(CCn2c(=S)[nH]c3cc(C(=O)NCc4ccco4)ccc3c2=O)cc1OC
→ x	1.5
> CCn1c(=O)cc(OCC(=O)N2CCN(C(=O)c3ccco3)CC2)c2ccccc21
→ x	-2.1
> Cn1c(CN2CCOCC2)nnc1SCC(=O)NCCc1ccccc1
→ i	3.0
> Cc1ccc(C2CC(c3cccc(Br)c3)Nc3nnnn32)cc1 (stereo unspecified)
→ i	0.0
> CN(C)S(=O)(=O)c1ccc(/C(O)=C2/C(=O)C(=O)N(CCN3CCCCC3)C2c2cccnc2)cc1 (stereo unspecified)
→ i	-0.8
> COc1ccc(-n2c(Cc3cccn3C)nnc2SCC(=O)Nc2cccc(NC(C)=O)c2)cc1
→ x	-0.2
> CCC(C)NC(=O)CC1Oc2ccc(Cl)cc2NC1=O (stereo unspecified)
→ x	-0.1
> CC(C)(C)c1csc(N(CCC#N)CCC#N)n1
→ x	-0.3
> CCCCCCNC(=O)Cc1c(O)c2ccccc2[nH]c1=O
→ i	-0.9
> CC(=O)Nc1cc(-c2nn3c(C)nnc3s2)ccc1C
→ x	0.2
> O=C(CN1CCOc2ccccc21)N1CCN(c2cccc(Cl)c2)CC1
→ x	0.3
> COCCN(CCOC)Cc1c(C)[nH]c2ccccc2c1=O
→ i	0.2
> CN(C)CCSc1nnc2sc3ccccc3n12
→ i	0.0
> O=C(NCc1n[nH]c(=S)n1-c1cccc(Cl)c1)c1ccc(S(=O)(=O)N2CCCC2)cc1
→ x	-0.8
> O=C(Cn1cnc2c(nnn2Cc2ccc(Cl)cc2)c1=O)N1CCCc2ccccc21
→ x	-0.7
> Cc1cc(C)nc(SCC(=O)c2ccc(O)cc2O)n1
→ x	-1.5
> Cc1ccc(-c2noc(CCC(=O)Nc3ccccc3N3CCN(C)CC3)n2)cc1
→ x	1.6
> O=C(NCCN1CCOCC1)C1CCC(=O)N1C1CCCCC1 (stereo unspecified)
→ x	0.6
> CCOc1ccc2nc(SCC(=O)Nc3ncccn3)[nH]c2c1
→ i	8.7

Overlap with the part before: 6 compounds; new compounds follow.
Sequence of screens: VCAM-1 up	Proteasome disasm
> O=C(NCc1n[nH]c(=S)n1-c1cccc(Cl)c1)c1ccc(S(=O)(=O)N2CCCC2)cc1
→ x	-0.8
> O=C(Cn1cnc2c(nnn2Cc2ccc(Cl)cc2)c1=O)N1CCCc2ccccc21
→ x	-0.7
> Cc1cc(C)nc(SCC(=O)c2ccc(O)cc2O)n1
→ x	-1.5
> Cc1ccc(-c2noc(CCC(=O)Nc3ccccc3N3CCN(C)CC3)n2)cc1
→ x	1.6
> O=C(NCCN1CCOCC1)C1CCC(=O)N1C1CCCCC1 (stereo unspecified)
→ x	0.6
> CCOc1ccc2nc(SCC(=O)Nc3ncccn3)[nH]c2c1
→ i	8.7
> COC(=O)C1(C(F)(F)F)N=C2Sc3ccccc3N2C(N2CCOCC2)=N1 (stereo unspecified)
→ i	0.0
> Cc1ccc(CCP(=O)(O)CN2CCOCC2)cn1
→ i	0.2
> COc1ccc(C(=O)N(c2ccccc2)C2C=CS(=O)(=O)C2)cc1 (stereo unspecified)
→ x	0.0
> CC1(C)OC(=O)N(CCc2ccccc2)C1(C)O (stereo unspecified)
→ x	0.5
> Cc1cc(C)c(S(=O)(=O)Nc2ccc(O)cc2)cc1C
→ x	0.0
> Cc1cccc(CS(=O)(=O)Cc2ccc(C(=O)NCCN3CCCCC3C)o2)c1 (stereo unspecified)
→ x	-1.8
> Cc1nc2ccc(Br)cn2c1NC(C)(C)C
→ i	5.4
> COc1ccc(C(=O)NCCc2nnc(SCc3nc4ccccc4c(=O)[nH]3)n2C)cc1
→ i	-0.9
> COc1ccc(S(=O)(=O)n2nc(OC(=O)c3ccc(C)cc3)cc2N)cc1
→ i	1.3
> CCOC(=O)CSc1nc2cc(C(=O)N3CCC(C(N)=O)CC3)ccc2c(=O)n1-c1ccccc1
→ i	-0.8
> CC(=O)N(C)C1(c2nnnn2CCOC(=O)Nc2cccc3ccccc23)CCCC1
→ i	0.8
> CCCCNC(=O)c1ccc(N2CCOCC2)c(NS(=O)(=O)c2ccc(OC)cc2)c1
→ x	-0.8
> Cc1nnc(SCc2cnc(-c3ccccc3)o2)[nH]c1=O
→ i	-3.8
> COCC(=O)N(c1ccc(C(C)C)cc1)C1C=CS(=O)(=O)C1 (stereo unspecified)
→ i	-0.9
> N#CCSC1=Nc2ccccc2C2=NC(CCC(=O)N3CCN(c4ccccc4)CC3)C(=O)N12 (stereo unspecified)
→ x	0.1
> COc1ccc(N2C(=O)CC(N3CCCC4CCCCC43)C2=O)cc1 (stereo unspecified)
→ i	-1.2
> COc1cccc(-c2nc(CS(=O)(=O)CC(=O)NCCCN3CCc4ccccc4C3)c(C)o2)c1
→ x	6.7
> Cc1ccc2c(c1)NC(=O)C(CC(=O)NCCCN1CCCC1=O)O2 (stereo unspecified)
→ x	-0.2
> Clc1ccc(Cn2cc(/C=N/n3cnnc3)c3ccccc32)cc1
→ x	-0.4
> Cc1nnc(SCC(=O)Nc2sc3c(c2C#N)CCCC3)[nH]c1=O
→ i	-1.2

An excerpt from above in order of molar mass, descending.
Sequence of screens: VCAM-1 up	Proteasome disasm
> N#CCSC1=Nc2ccccc2C2=NC(CCC(=O)N3CCN(c4ccccc4)CC3)C(=O)N12 (stereo unspecified)
→ x	0.1
> CCCCNC(=O)c1ccc(N2CCOCC2)c(NS(=O)(=O)c2ccc(OC)cc2)c1
→ x	-0.8
> Cc1nnc(SCc2cnc(-c3ccccc3)o2)[nH]c1=O
→ i	-3.8

Next part:
Sequence of screens: VCAM-1 up	Proteasome disasm
> Cc1ccc(-c2nn3c(C)nnc3s2)cc1NC(=O)c1ccco1
→ x	-0.9
> Cc1cccc(N(CC(N)=O)S(C)(=O)=O)c1C
→ i	0.9
> C=CCNC(=O)c1cc(-c2ccccc2O)on1
→ i	-0.5
> CCCc1nnc(NC(=O)CCCC(=O)O)s1
→ x	-1.1
> Cc1ccnc(SCCn2c(N3CCN(Cc4ccccc4)CC3)nc3c2c(=O)[nH]c(=O)n3C)n1
→ i	3.1
> CC(C)NC(=O)c1cnc(N2CCN(c3ccccn3)CC2)c2ccccc12
→ x	-3.5
> Cc1ccc(Cl)cc1N1CCN(C(=O)CN2C(=O)c3cccc4cccc2c34)CC1
→ i	0.3
> COc1ccc(NC(=O)c2ccc(NS(=O)(=O)c3c(C)noc3C)cc2)cc1OC
→ x	-0.5
> O=C(CC(C(=O)N1CCc2ccccc21)n1ccnc1)NCC1CCCO1 (stereo unspecified)
→ x	-0.4
> COc1cccc(NC(=O)CCSc2nnc3scc(-c4ccccc4)n23)c1
→ x	1.1
> COc1ccccc1N1CCN(C(=O)C2C3C=CC4(CN(Cc5ccccc5Cl)C(=O)C24)O3)CC1 (stereo unspecified)
→ x	1.7
> CC(=O)N1CCN(c2ccc(NC(=O)c3ccc(C(C)(C)C)cc3)cc2)CC1
→ i	-0.8
> O=C(NC1CC1)C1CC(=O)N(C2CCCCC2)C1 (stereo unspecified)
→ x	0.7
> O=C(CCCCCN1C(=O)c2ccccc2C1=O)NCc1ccccn1
→ x	-0.5
> CCOc1ccc(C2C=C(c3ccc(F)cc3)Nc3ncnn32)cc1 (stereo unspecified)
→ i	0.8
> Cc1oc(-c2ccccc2F)nc1CN1CCC(C(=O)NC2CCCCCCC2)CC1
→ x	-0.8
> N#Cc1nc(COc2cccc(Cl)c2)oc1NCc1ccco1
→ x	-2.4
> CCN1CCN(S(=O)(=O)c2ccc3[nH]c(=O)oc3c2)CC1
→ x	-0.7
> CCOc1ccc(S(=O)(=O)N2CCN(c3ccccc3OC)CC2)c2cccnc12
→ x	0.6
> COc1ccccc1N(CC(=O)Nc1cccnc1)S(C)(=O)=O
→ i	-0.3
> CCc1nnc(NC(=O)C2Cc3ccccc3C(=O)O2)s1 (stereo unspecified)
→ x	-1.2
> COc1ccc(Br)cc1C1N2CC3(C)CN1CC(C)(C2)C3=O (stereo unspecified)
→ i	1.6
> CCSc1nc2c(c(=O)[nH]1)C(c1ccncc1)C(C(=O)OC(C)C)=C(C)N2 (stereo unspecified)
→ x	-0.1
> Cc1cc(=O)n(CC(C)C)c(O)c1C#N
→ i	3.5
> O=C(Cn1cc2c(n1)CCCC2)Nc1cc(-c2cccc(Cl)c2)no1
→ x	0.7
> COCCCNC(=O)c1c(N)n(-c2cccc(S(N)(=O)=O)c2)c2nc3ccccc3nc12
→ i	3.0
> CCOc1ccc(OCC)c(NC(=O)c2[nH]c(C)c(C(C)=O)c2C)c1
→ x	-0.8
> C[C@@H]1C[C@H](O)c2cc(Cl)ccc2N1
→ i	0.6
> CCC1CCc2c(sc3ncnc(N4CCOCC4)c23)C1 (stereo unspecified)
→ i	-1.8
> COc1cc(OC)c(NC2c3ccccc3C(=O)N2c2cc(C)ccn2)cc1Cl (stereo unspecified)
→ x	1.7
> CCOC(=O)Cn1nc(-c2ccc(Cl)cc2)ccc1=O
→ x	-5.0
> CCOC(=O)CCc1c(C)nc2c(c(C)nn2C(C)(C)C)c1C
→ x	-0.7
> O=C(OCn1nnc2ccccc2c1=O)c1cccnc1
→ x	-0.1
> Cc1ccc(S(=O)(=O)n2nc(OC(=O)C3CCCCC3)cc2N)cc1
→ x	0.6
> CCCc1cc(C(=O)NC2CCCC2)no1
→ x	0.9
> COC(=O)C1=C(C)OC(N)=C(C#N)C1c1cc(OC)ccc1OC (stereo unspecified)
→ x	-2.4
> COCCn1c(C)c(C(=O)O)sc1=S
→ i	0.2
> Cc1ccc(-c2nc3cc(N)ccc3o2)cc1
→ i	0.4
> O=C(O)C1CCCN1C(=O)OCc1ccccc1 (stereo unspecified)
→ x	-0.1
> COc1ccc(N2CCN(C(=O)c3cc4c(-c5ccc(Cl)cc5)nn(C)c4s3)CC2)cc1
→ x	-0.2
> CCOC(=O)C1=C(C)NC(C)=C(C(=O)OCC)C1c1cc(N)ccc1OC(F)F
→ i	0.6
> O=C(NCCCN1CCCCC1)c1ccc2c(=O)n(CCc3ccccc3)c(=O)[nH]c2c1
→ x	6.0
> O=C(CC(NS(=O)(=O)c1ccc(Cl)cc1)c1ccco1)NCc1ccco1 (stereo unspecified)
→ x	-0.1
> C=C(C)COc1ccc(-c2n[nH]c(C)c2-c2ccccc2)c(O)c1
→ i	-0.1
> COc1ccc(C2C(C(=O)NCc3ccccn3)c3ccccc3C(=O)N2C)cc1OC (stereo unspecified)
→ x	-0.7

Not all compounds are listed; rates above refer to the full screens.
